# Beta2AR agonist = activates human beta-2 adrenergic receptor causing internalization. hit rate 0.43% among 340,000. AID 504454. Am2.2-beta2AR cells, FAP receptor internalization, flow cytometry; reference of the scale not given here. response, % (test concentration not listed). P07550;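 active = response above a set limit, near 3 SD of response in nonfluorescent compounds, cut at about 42% in these data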;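 note: stock transfer was 100 nL into about 11 µL; a reference agonist was the positive control; negative values mostly stem from fluorescent compounds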
# LANA-H2B inh = blocks KSHV LANA binding to histone H2A/H2B; Q9QR71; cell-free LANA-H2A/H2B peptide, fluorescence polarization; inhibition, % (test concentration not listed); hit rate 0.6% among 320,000; in the data active = inhibition mostly above about 10%, no sharp cut-off; inactive = mostly below about 6.7%;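 note: stock transfer was 7.5 nL into about 10 µL; 0% = median of vehicle wells and 100% = median of positive control wells; one replicate is shown; the record names a cut of 25% in any replicate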
# Target sequence (Q9QR71 whole entry, looked up): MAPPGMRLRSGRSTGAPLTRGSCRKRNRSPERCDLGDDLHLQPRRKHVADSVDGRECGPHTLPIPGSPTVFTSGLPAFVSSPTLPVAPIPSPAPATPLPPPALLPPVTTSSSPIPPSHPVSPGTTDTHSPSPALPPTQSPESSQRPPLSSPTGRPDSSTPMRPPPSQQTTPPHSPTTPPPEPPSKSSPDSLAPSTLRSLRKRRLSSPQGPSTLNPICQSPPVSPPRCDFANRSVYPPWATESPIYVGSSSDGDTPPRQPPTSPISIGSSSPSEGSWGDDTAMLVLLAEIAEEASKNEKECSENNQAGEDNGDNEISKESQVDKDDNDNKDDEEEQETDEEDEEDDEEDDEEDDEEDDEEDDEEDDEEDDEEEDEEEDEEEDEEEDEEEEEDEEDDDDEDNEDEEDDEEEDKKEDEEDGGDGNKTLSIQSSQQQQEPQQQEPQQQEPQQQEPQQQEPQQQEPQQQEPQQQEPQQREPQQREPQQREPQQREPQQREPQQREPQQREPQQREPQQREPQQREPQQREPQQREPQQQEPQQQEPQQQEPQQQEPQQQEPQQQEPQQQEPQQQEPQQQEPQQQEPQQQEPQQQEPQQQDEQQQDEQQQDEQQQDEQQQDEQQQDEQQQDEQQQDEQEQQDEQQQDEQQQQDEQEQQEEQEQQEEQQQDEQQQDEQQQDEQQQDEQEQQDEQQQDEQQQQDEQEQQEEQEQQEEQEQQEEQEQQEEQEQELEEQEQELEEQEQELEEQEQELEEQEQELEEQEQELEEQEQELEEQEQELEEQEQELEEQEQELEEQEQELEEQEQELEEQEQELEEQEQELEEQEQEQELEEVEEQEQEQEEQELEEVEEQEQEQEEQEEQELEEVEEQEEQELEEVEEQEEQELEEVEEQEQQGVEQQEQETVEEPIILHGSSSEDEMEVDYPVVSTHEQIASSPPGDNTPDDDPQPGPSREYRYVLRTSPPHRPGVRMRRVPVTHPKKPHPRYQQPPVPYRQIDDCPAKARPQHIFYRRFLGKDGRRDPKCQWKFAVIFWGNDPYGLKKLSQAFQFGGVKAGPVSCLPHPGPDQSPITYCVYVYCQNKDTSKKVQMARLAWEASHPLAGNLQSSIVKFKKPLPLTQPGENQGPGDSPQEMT
# E coli growth = inhibitors of Escherichia coli growth; OD600, 23 h; hits give low values; AID 1053175; OD600 absorbance (concentration not given with the values); hit rate 0.21% among 330,000;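 active = OD600 absorbance below the run mean of sample wells minus 3.6 SD, in any replicate, cut at about 0.56 in these data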;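 note: stock transfer was 300 nL into about 60 µL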
# Bfl-1 A1 inh = inhibitors of the anti-apoptotic protein A1, read as caspase activation; MEF A1-2A-BIM cells, Caspase-Glo 3/7 luminescence, 3 h; percent of clofoctol response, vehicle zero; caspase activation, % (concentration not given with the values); hit rate 0.066% among 330,000;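 active = over half of replicate activation scores above 10%, or exactly half above 10 with the replicate mean above 10; inconclusive = replicate mean below 10 yet half the replicates above 10; inactive = over half of replicates below 10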;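 note: wells of about 30 µL received 50 nL stock; many hits fall short of the cut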
# HNF4A DNA FP = change in binding of human HNF4 alpha to DNA. P41235. HNF4a-FITC DNA binding, fluorescence polarization, 1 h. activity change, % at 10 µM. hit rate 0.3% among 360,000. AID 1224865; in the data active = activity change above about 30%, passing the limit was not always enough;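 note: controls were the assay level and a saturating level of protein; the project sought stronger binding though the title names inhibitors; some compounds called inactive have numbers as strong as hits; positive values seem to mean higher polarization but the record does not say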
# Vif A3G = HIV-1 Vif–A3G interaction blockers – biochemical, TR-FRET, GST-Vif 1-94, biotin-A3G peptide, dose response retest, primary screen (AID 1117319). hit rate 0.57% among 260,000. TR-FRET GST-Vif / biotin-A3G peptide binding; higher % means a stronger effect; test concentration not given here; strong numbers were not always called active. one-dose inhibition, %; IC50 in µM for titrated hits;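 active = above the screen mean plus three standard deviations and confirmed in dose response; inconclusive = results disagree or hit not tested in dose response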;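 note: Vif residues 1-94 fused to GST binding biotinylated APOBEC3G peptide 110-148; 0% = full assay without inhibitor and 100% = GST in place of GST-Vif; retest series ran down from 100 µM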
# UCH37 inh = blocks the human deubiquitinase UCH37. purified proteasome/UCH37, Ub-AMC cleavage fluorescence. inhibition, % (no concentration beside the values). hit rate 0.33% among 330,000;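 active = mean of two replicates above 20%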;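 note: 0% = compound-free wells with enzyme and 100% = wells lacking proteasome; stock transfer was 100 nL into about 20 µL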
#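 Schedule: 30 min plus 25 min, room temperature / Material: human UCH37 within purified proteasomes / Technique: AMC fluorescence intensity at 355/460 nm / Buffer or medium: pH 7.4 Tris-HCl (50 mM) with ovalbumin, ATP-MgCl2, DTT / Controls: wells without proteasome as full block, compound-free enzyme plus substrate as uninhibited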
# An asterisk follows results filed as active; ? = inconclusive; · = not tested or not shown.
SMILES,Beta2AR agonist,LANA-H2B inh,E coli growth,Bfl-1 A1 inh,HNF4A DNA FP,Vif A3G,UCH37 inh
CCN1C(=O)N(C)[C@@H](c2ccccc2)C(C(=O)OC)=C1C,-5,4.3,·,-0.4,1.4,15%,·
COc1ccc(S(=O)(=O)N2CCCCCC2)cc1N(C)S(=O)(=O)c1ccccc1,-6,0.8,0.69,0.4,-3.5,31%,6.3
CCCCN(C(=O)CSc1n[nH]c(-c2ccc(C)cc2)n1)c1c(N)n(CCCC)c(=O)[nH]c1=O,3,-1.8,0.7,0.8,-0.3,·,3.4
COc1ccc(-c2ccc3c(c2)C2CC3CCN2CCC#N)cc1 (stereo unspecified),-4,·,0.68,·,0.1,-6%,3.6
COc1cc(OC)c(OC)cc1/C=N/NC(=O)c1cc(-c2cccn2C)n[nH]1,8,2.6,·,0.4,-2.4,2%,·
Cc1cccnc1NC(=O)C1CCN(S(=O)(=O)c2c(C)noc2/C=C/c2ccco2)CC1,-9,-3.6,0.68,-0.5,1.0,16%,10
Cc1cc(-c2nc3ccccc3c(=O)o2)ccc1[N+](=O)[O-],-2,0.5,0.68,1.1,-2.9,·,4.9
Cc1c(NS(=O)(=O)c2cc(Br)cc3c2N(C(=O)C2CC2)CC3)c(=O)n(-c2ccccc2)n1C,-5,8.3,0.69,-0.5,1.4,-13%,7.0
CC1(C)CC(=O)c2c(n(-c3cccc4ccccc34)ccc2=O)C1,-1,0.7,0.81,-1.9,-1.3,16%,3.0
COc1ccc(NC(=O)Nc2c(O)ccc3ccccc23)cc1,12,3.9,0.65,0.4,-0.9,·,-12
Cc1ccc(N(CC(=O)NCc2ccccc2)S(=O)(=O)c2c(C)noc2C)cc1,3,1.6,0.67,0.4,5.1,·,1.9
COc1ccccc1NC(=O)COC(=O)CCC1CCCC1,0,1.1,0.68,-0.1,2.4,-3%,2.6
CCOc1ccc(N(CC(=O)Nc2cc(Cl)ccc2C)S(C)(=O)=O)cc1,-8,-4.0,0.67,0.9,-1.8,·,1.8
CN(C)C(=S)Nc1nc2ccccc2s1,0,·,0.64,·,4.3,·,6.1
CN1CCN(c2nc3ccccc3nc2C(C#N)C(=O)OC2CCCCC2)CC1 (stereo unspecified),-21,4.2,0.66,-0.6,5.5,-6%,3.6
Cc1cc(C(=O)COC(=O)c2ccc(Br)o2)c(C)n1Cc1ccco1,·,2.4,0.71,0.7,·,·,0.7
CN1C(=O)C(CC(=O)Nc2ccc(F)cc2)N(Cc2ccco2)C1=S (stereo unspecified),-5,-0.2,0.68,-1.1,-0.7,2%,0.4
Cc1nn(CC(=O)c2ccccc2Cl)c(C)c1[N+](=O)[O-],-4,-1.2,0.71,-5.1,4.8,-3%,4.0
COc1ccccc1CNC(=O)Cc1ccccc1,-6,0.2,0.59,1.6,1.8,-4%,6.3
Nc1nc2n(n1)C(=O)CC(c1ccccc1)N2 (stereo unspecified),5,-3.4,0.66,0.9,1.4,4%,-1.1
Cc1cc(=O)oc2n[nH]c(-c3ccccc3)c12,-10,-3.3,0.72,0.1,0.1,-1%,-11
COc1cc(S(=O)(=O)N2CCOCC2)ccc1F,-2,1.1,0.72,1.6,-0.1,7%,-1.7
CCOc1ccccc1-n1c(SCC(=O)Nc2nccs2)nnc1-c1ccoc1C,-5,-1.6,0.73,1.1,1.3,-6%,2.4
CCOC(=O)C1(C(=O)OCC)CCN(S(=O)(=O)c2ccccc2)CC1,-2,·,0.69,·,6.6,6%,-1.5

# Among those listed so far, 2 contain a Cl atom.
SMILES,Beta2AR agonist,LANA-H2B inh,E coli growth,Bfl-1 A1 inh,HNF4A DNA FP,Vif A3G,UCH37 inh
CCOc1ccc(N(CC(=O)Nc2cc(Cl)ccc2C)S(C)(=O)=O)cc1,-8,-4.0,0.67,0.9,-1.8,·,1.8
Cc1nn(CC(=O)c2ccccc2Cl)c(C)c1[N+](=O)[O-],-4,-1.2,0.71,-5.1,4.8,-3%,4.0

# Later entries
SMILES,Beta2AR agonist,LANA-H2B inh,E coli growth,Bfl-1 A1 inh,HNF4A DNA FP,Vif A3G,UCH37 inh
CN(C(=O)CSc1nnn(C)n1)c1ccccc1,-5,5.9,0.72,1.4,0.3,0%,0.6
Nc1ccc(-c2nnc(-c3ccccc3)o2)cc1,2,12,0.67,-0.2,4.1,·,-72
Cc1sc(NC(=S)NC(=O)c2ccco2)c(C#N)c1C,-6,-1.6,0.71,-2.9,1.2,-3%,3.8
CCOC(=O)c1cc2c(=O)n3ccccc3nc2n(CC2CCCO2)c1=NC(=O)/C=C/c1ccccc1 (stereo unspecified),-5,-0.4,0.71,-1.0,-2.7,0%,-22
CC(C)[C@H](NC(=O)c1ccc(Cl)cc1Cl)C(=O)OCc1nc2ccsc2c(=O)[nH]1,-5,·,0.69,·,0.9,·,2.1
O=C(c1ccccc1)N1CCN(CCc2ccccc2)CC1,-2,-8.6,0.65,1.3,1.2,·,0.4
O=C1CCCC2=C1C(c1cccs1)n1nc(SCc3ccc(C(=O)O)cc3)nc1N2 (stereo unspecified),-10,2.8,0.7,0.3,-3.2,-4%,-25
c1ccc(-c2cc(-c3nnc4n3N=C(c3ccc5ccccc5c3)CS4)[nH]n2)cc1,1,-1.8,0.74,-1.2,2.2,72%,8.6
O=C1NCC(c2ccccc2)C1C(=O)N/N=C\c1ccc(-c2ccc(Cl)c(Cl)c2)o1 (stereo unspecified),-15,-3.7,·,-0.4,1.3,0%,·
COc1ccc(OC)c(NC(=O)CCNC(=O)Cn2ccc3ccccc3c2=O)c1,5,-1.8,0.67,0.6,0.8,·,4.3
Cc1cccc(-c2nnn(CC/C(N)=N/O)n2)c1,-1,-0.8,0.72,-3.6,-2.9,-8%,0.7
Cc1ccc(/C=[N+](/[O-])C2SC(=S)N(C)C2(C)C)cc1 (stereo unspecified),2,4.3,0.69,-0.9,0.8,-1%,7.3
Cc1cc(C)c2sc(NNC(=O)c3ccc(S(=O)(=O)N4CCc5ccccc5C4)cc3)nc2c1,35,-1.5,0.71,-0.1,1.9,-7%,2.6
COc1ccc(CNC(=O)/C=C/c2ccccc2[N+](=O)[O-])cc1,5,-4.8,0.73,0.7,-1.0,6%,4.4
CCOC(=O)C1CCCN(CCC(=O)Nc2c(C(=O)OC)[nH]c3cc(OC)ccc23)C1 (stereo unspecified),-2,2.2,0.67,0.0,2.4,22%,-1.3
Cc1nn2c(c1-c1ccc(Cl)cc1)N=C(c1ccco1)CC2c1ccccc1 (stereo unspecified),0,-1.8,0.72,1.1,7.1,28%,-0.9
Cn1c(=O)c2c3c(sc2n2c(SCc4ccccc4)nnc12)CCCC3,·,2.3,·,?,·,-1%,2.5
Cn1c(=O)n(CC(=O)Nc2ccc(F)cc2)c2ccccc21,-12,-1.6,0.69,-0.5,-4.8,2%,2.1
COc1ccc(N2C(=O)CC(N3CCN(S(=O)(=O)c4cc(C)ccc4C)CC3)C2=O)cc1 (stereo unspecified),-2,-3.0,0.71,0.7,-0.9,10%,-1.0
CCOC(=O)COn1c(=O)c(C)[n+]([O-])c2ccccc21,21,-3.6,0.7,0.3,6.7,10%,2.6
CCOC(=O)c1cc2cc(F)ccc2nc1C,-4,0.6,0.71,0.6,-3.0,1.6µM*,0.1
Cc1cc(C)cc(NC(=O)CSc2nc3ccccc3nc2N2CCCC2)c1,-17,-1.5,0.8,-0.3,0.3,·,-6.5
N#Cc1cccnc1N1CCC(C(N)=O)CC1,6,-1.0,0.69,-0.3,6.0,0%,-158
O=C(CCc1nc(-c2ccc(Cl)cc2)no1)NCc1ccccc1CN1CCOCC1,-8,-3.7,0.66,-0.7,0.6,-4%,2.6
O=C(Oc1ccc2c(=O)c(Oc3ccc4ccccc4c3)coc2c1)c1cccnc1,-1,-0.8,0.7,1.5,1.5,·,-0.7
COc1ccc(OCC#CCNC(C)(C)C)cc1,5,4.5,0.76,-2.6,-1.1,2%,-1.3
COc1ccc(S(=O)(=O)N(CCc2ccccc2)CC(=O)NCCCO)cc1,-5,1.6,0.64,1.5,-4.4,25%,0.6
Cc1ccc(C)n1NC(=O)c1ccc(Cl)cc1Cl,3,0.6,0.68,0.2,2.4,13%,0.8
Cc1ccc(C)c(Cn2c(CO)nc3ccccc32)c1,3,-3.2,0.72,-0.6,0.7,2%,2.4
O=C(NCCC1=CCCCC1)C(c1ccccc1)c1ccccc1,6,4.4,0.73,-0.1,1.7,13%,-0.7
Cn1nnc(-c2ccc(OCc3ccccc3F)cc2)n1,-3,0.5,0.65,-7.2,-1.4,0%,3.2
Cc1ccc(S(=O)(=O)NCC(=O)OCC(=O)N(C)C2CCS(=O)(=O)C2)cc1 (stereo unspecified),-7,-5.5,0.71,0.3,-1.8,3%,0.2
O=C(Nc1ccnn1C1CCN(CCCC2CCCC2)CC1)c1ccccc1Cl,-1,3.0,0.65,0.6,-5.0,·,4.7
Cc1nc2c(c(C)nn2-c2ccccc2)c(C)c1CCC(=O)Nc1ccc(CN2CCCC2)cc1,24,4.3,0.68,0.7,4.5,·,-13
Cc1ccc(CSC2=NCCN2S(=O)(=O)c2ccccc2)cc1,2,5.7,0.69,0.5,2.2,1%,6.4
Cc1ccc(NC(=O)C2CCN(C(=O)c3ccc(F)cc3)CC2)nc1,-3,0.9,0.68,-0.4,-0.6,·,2.4
CC(C)Cc1ccc(S(=O)(=O)Nc2cccnc2)cc1,9,1.2,0.66,0.0,-1.7,·,0.0
O=S(=O)(c1ccc(OCc2ccc(Br)cc2)cc1)N1CCOCC1,1,4.3,0.69,0.1,1.2,-9%,4.0
COc1ccccc1/C=C\C(=O)NCC(=O)N/N=C/c1cccc(OC)c1O,11,3.9,·,0.1,3.5,·,·
COc1ccc(OCC(O)CNS(=O)(=O)c2ccc(C)cc2)cc1 (stereo unspecified),2,0.5,0.69,-0.3,-2.6,-6%,4.5
CCOC(=O)C1=CN(Cc2ccco2)S(=O)(=O)N(C)C1CC (stereo unspecified),3,·,0.72,·,-3.1,8%,2.8
Cc1cccc(OCC(=O)NCCNC(=O)c2ccccn2)c1,-4,-2.4,0.69,-0.4,-0.8,·,-0.3
O=C(O)C(F)(F)S(=O)(=O)O,-1,11,0.72,0.0,0.1,2%,2.2
CN(Cc1ccccc1)CC(O)COc1ccc(CNCc2nccn2C)cc1 (stereo unspecified),-10,-1.8,0.68,-0.3,2.4,·,5.0
CCCc1nnc(SCC(=O)N2CCCCC2C)n1CC1CCCO1 (stereo unspecified),1,1.3,0.72,-0.2,-1.7,-5%,-4.6
CCOC(=O)C1CCCN(Cc2cccs2)C1 (stereo unspecified),4,-1.2,0.66,-1.2,-3.5,-2%,0.8
COc1cccc(CNC(=O)CCc2nc3cc(S(=O)(=O)N4CCOCC4)ccc3n2C)c1,-2,-0.8,0.64,-0.4,-1.2,-2%,3.4
COc1cccc(NC(=O)CNc2cc(S(=O)(=O)N3CCOCC3)ccc2N2CCCC2)c1,7,0.6,0.67,-0.2,-1.3,-2%,4.3
CCC1C(=O)Nc2ccccc2N1C(=O)COc1ccccc1 (stereo unspecified),6,2.3,0.69,0.0,-3.1,·,1.3
NC(=O)c1nc[nH]c1C(=O)Nc1cccc(C(F)(F)F)c1,-5,2.2,0.65,0.1,-0.6,·,0.4
COc1cc2[nH]c(=O)n(CCCCCC(=O)N3CC=C(c4ccccc4)CC3)c(=O)c2cc1OC,37,-6.6,0.7,-1.1,0.1,2%,-6.1

# Source: PubChem BioAssay
